Vaccinia mCherry = inhibitors of vaccinia virus infection (mCherry reporter signal) | Vaccinia virus mCherry reporter infection, fluorescence; about a quarter of the inactives have no number | Potency, µM (highest dose often 36.5 µM), for inactives: top-dose activity change, negative = inhibition, most hits filed as inhibitors | 310,000 tested, 0.63% active | AID 720579; active = well fitted inhibition curve with a large enough effect; inconclusive = small, poorly fitted or top-dose-only effect; inactive = no such curve, though single readings can be large or run the other way; tested in A549 cells; also: nearly all actives have a fitted effect of over 35% in size; inactives centre near -10
Vaccinia Venus = vaccinia inhibition (Venus reporter) | Vaccinia virus Venus reporter expression, fluorescence | Potency, µM (titrated, usually from 36.5 µM), without a hit: at the top dose activity change, negative = inhibition, usual class: inhibitors | 330,000 tested, 0.46% active | AID 720580; active means well fitted inhibition curve with a large enough effect; inconclusive means small, poorly fitted or top-dose-only effect; inactive means no such curve, though single readings can be large or run the other way; tested in A549 cells; also: nearly all actives have a fitted effect of over 30% in size; inactives centre near -10
Numbers without * were called inactive; i = inactive; ? = inconclusive; nt = not tested or not shown; [ ] = dose if it differs, or a comment. % is scaled to controls: 0 for no effect and ±100 for the full control effect; potency is read from the fitted curve at half-maximal effect.

compound	Vaccinia mCherry	Vaccinia Venus
Cc1cc[n+](CC(=O)Nc2nc3ccccc3s2)cc1	i	-10%
Cc1c(N2C(=O)C(=O)/C(=C(/O)c3ccccc3)C2c2ccc(F)cc2)c(=O)n(-c2ccccc2)n1C (configuration not stated)	i	-11%
CC(C(=O)O)n1c(-c2ccn[nH]2)n[nH]c1=S (configuration not stated)	-6%	-1%
COc1ccc(OCc2cccc(C(=O)O)c2)cc1	-14%	-10%
Cn1cc([N+](=O)[O-])c(C(=O)Nc2ccn(C34CC5CC(CC(C5)C3)C4)n2)n1	-5%	-2%
COc1ccc(Cl)cc1NC(=O)Cn1ncc2c3ccccc3n(Cc3ccccc3)c2c1=O	-9%	-11%
Cc1ccc(NC(=S)N2CCCCCC2)cc1	-12%	-12%
CSc1nnc(C)c(/C=C/NOCc2ccc(Cl)cc2)n1	?	-9%
O=C(OCC(=O)N1CCc2ccccc21)[C@@H]1CC(O)CN1S(=O)(=O)c1ccccc1[N+](=O)[O-] (some centres not stated)	-4%	-21%
CSc1ccccc1NC(=O)CN(C)CC(=O)Nc1ccccc1F	i	-7%
Nc1nc(Cl)c2ncn(C3OC(CO)C(O)C3O)c2n1 (configuration not stated)	?	?
COc1ccc(N(CC(=O)NCc2ccc3c(c2)OCO3)S(C)(=O)=O)cc1OC	i	-12%
Brc1cccc(CNCCSc2nnnn2-c2ccccc2)c1	-4%	-16%
CC(=O)c1ccc(N2CCN(S(=O)(=O)c3ccc4c(c3)C(C)(C)C(=O)N4)CC2)cc1	-16%	-21%
COC(=O)c1ccc(C(=O)OC)c(NC(=O)COC(=O)C2CC2C)c1 (configuration not stated)	-23%	-14%
O=C(NCc1ccc(Cl)cc1)c1cc(=O)[nH]c2ccccc12	-12%	2%
CC1CCc2cc(F)ccc2N1C(=O)c1cccnc1 (configuration not stated)	-12%	-14%
COC(C(=O)Nc1ccc(F)cc1F)c1ccccc1 (configuration not stated)	-7%	-10%
O=C(CCc1nc2ccccc2c(=O)[nH]1)N1CCN(S(=O)(=O)c2ccc(Cl)c(C(F)(F)F)c2)CC1	-3%	-8%
CSCC[C@H](NC(=O)OC(C)(C)C)C(=O)N/N=C/c1ccc2nccnc2c1	-23%	-20%
CC(=O)Nc1ccc(NC(=O)C2CC(=O)Nc3nc4ccccc4n32)cc1 (configuration not stated)	i	-6%
CC1(C)Oc2ccc3ccc(=O)oc3c2/C(=C/NNC(N)=S)C1=O	?	-5%
CN1CCN(c2ncnc3c2cnn3-c2ccc(Cl)cc2)CC1	i	-9%
O=C(O)CSCC(=O)N1CCN(Cc2ccc3c(c2)OCO3)CC1	-8%	1%
COC(=O)C1=C(c2ccc(OC(F)(F)F)cc2)C[C@@H]2CC[C@H]1N2C(=O)N1CCC(O)CC1	-29%	-20%

Molecules listed so far that have a CF3 group (two):
compound	Vaccinia mCherry	Vaccinia Venus
O=C(CCc1nc2ccccc2c(=O)[nH]1)N1CCN(S(=O)(=O)c2ccc(Cl)c(C(F)(F)F)c2)CC1	-3%	-8%
COC(=O)C1=C(c2ccc(OC(F)(F)F)cc2)C[C@@H]2CC[C@H]1N2C(=O)N1CCC(O)CC1	-29%	-20%

(more compounds)
compound	Vaccinia mCherry	Vaccinia Venus
CCn1cc(CNC(=O)/C=C/c2cnn(C)c2)c(C)n1	-9%	-2%
COc1ccc(-c2ccc3c(c2)[C@@H]2C[C@H](N(C)C(=O)C(C)(C)C)[C@H]([C@H](C)O)C(=O)N2CC3)cc1	?	-26%
CC(=O)N1CCOc2cc(S(=O)(=O)Nc3cc(C(F)(F)F)ccc3Cl)c(C)cc21	-19%	-12%
Cn1cccc1-c1cc(C(=O)N/N=C/c2ccc(F)cc2)[nH]n1	-10%	-17%
O=C(c1cccc(S(=O)(=O)NCc2ccccc2)c1)N1CCCCC1	-15%	-10%
COC(=O)c1ccc(C(=O)OC)c(NC(=O)/C=C/C(=O)O)c1	-12%	4%
Cc1cc2ccccn2c1C(=O)c1ccc(Cl)c([N+](=O)[O-])c1	-30%	-13%
CCCCCCCCN1C(=O)[C@H](CC(=O)NCC2CCCCC2)C[C@@]2(C(=O)OCC)CCCC=C12	-10%	-15%
CCc1ccccc1N(c1nc(-c2ccc(OC)c(OC)c2)no1)c1nc(-c2ccc(OC)c(OC)c2)no1	10%	1%
Cc1ccc(C(=O)N2CCCC2)cc1S(=O)(=O)Nc1ccccc1	nt	-30%
CCC1(O)C(=O)OCc2c1cc1n(c2=O)Cc2cc3c(N)cccc3nc2-1 (configuration not stated)	-27%	?
COc1ccc(-n2nc3c(N4CCC(C(=O)NCCc5ccccc5C)CC4)nnc(C)c3c2C)cc1	-1%	-23%
COCCCNC(=O)CCC(=O)NNc1nc2ccccc2c2nc(C)nn12	-6%	4%
CCOC(=O)C1CCN(CC(=O)Nc2c(C(=O)OC)n(C)c3cccc(C)c23)CC1	nt	-27%
COC(=O)C1=C(C)N(Cc2ccccc2)C(=NCCc2c[nH]c3ccccc23)N[C@H]1c1cccc(C(F)(F)F)c1	?	?
O=C(NCc1cccs1)c1ccc(CSc2nc3cccnc3n2Cc2ccccc2F)cc1	-1%	-6%
Cc1[nH]c(=O)[nH]c(=O)c1S(=O)(=O)Nc1cccc([N+](=O)[O-])c1C	-11%	-1%
CCc1ccc(-n2c(N3CCN(c4ccc(F)cc4)CC3)nc3ccccc3c2=O)cc1	-13%	-21%
COc1cccc(OCc2nc3ccccc3[nH]2)c1	-4%	-10%
O=C(Nc1ccc(-c2cn3ccsc3n2)cc1)C1COc2ccccc2O1 (configuration not stated)	?	?
Cc1ccc(Cl)cc1NC(=O)CN1C(=O)CCc2ccccc21	-9%	2%
CCC(=O)Nc1nnc(-c2ccc(Cl)s2)o1	i	-13%
CCN1CCN(c2ccc(N)cc2C)CC1	-8%	5%
COc1ccc2ncccc2c1Cc1c(OC)ccc2ncccc12	-7%	-16%
CCCCN(C(=O)c1ccc(C)o1)c1c(N)n(CCCC)c(=O)[nH]c1=O	-10%	-2%

Molecules above that have a thiophene ring, fused or not:
compound	Vaccinia mCherry	Vaccinia Venus
O=C(NCc1cccs1)c1ccc(CSc2nc3cccnc3n2Cc2ccccc2F)cc1	-1%	-6%
CCC(=O)Nc1nnc(-c2ccc(Cl)s2)o1	i	-13%

The listing picks up; the three compounds before the break are reprinted first.
compound	Vaccinia mCherry	Vaccinia Venus
CCN1CCN(c2ccc(N)cc2C)CC1	-8%	5%
COc1ccc2ncccc2c1Cc1c(OC)ccc2ncccc12	-7%	-16%
CCCCN(C(=O)c1ccc(C)o1)c1c(N)n(CCCC)c(=O)[nH]c1=O	-10%	-2%
COc1ccc(/C=N/NC(=O)CCC(=O)Nc2ccc(F)cc2)c(OC)c1	-6%	-15%
CC1=C(C(=O)Nc2ccccc2C)C2(CCCC2)C(C(N)=O)C(=O)N1 (configuration not stated)	-14%	-10%
COc1ccc(CCN2CCCC(CN(C)Cc3cccc(OC)c3)C2)cc1 (configuration not stated)	-1%	-10%
Cc1ccc(OCC(=O)N2CC(C)OC(C)C2)c([N+](=O)[O-])n1 (configuration not stated)	6%	-4%
COCCCN1C(=O)C(CC(=O)NCc2cccs2)CC(C(=O)N2CCOCC2)=C1C (configuration not stated)	-17%	-10%
COc1ccccc1OCC(=O)N(Cc1nc(-c2ccccc2)no1)C1CCCCC1	nt	?
Cc1cc(C)n(C(=O)CNC(=O)c2ccc3c(c2)OCCO3)n1	-28%	-21%
O=C(CSc1nc2ccccc2n1Cc1ccccc1F)NCc1ccccc1	-22%	-2%
COC(=O)CCCC1=CC2=CC(=O)C(C)(OC(=O)c3cccs3)C(=O)C2=CN1Cc1ccc2c(c1)OCO2 (configuration not stated)	-10%	-2%
CC1=C(C(=O)O)N2C(=O)C(NC(=O)c3nn(C)cc3[N+](=O)[O-])C2SC1 (configuration not stated)	i	-1%
N/C(=N\OC(=O)COc1ccc(Cl)cc1)c1ccc(Cl)cc1	-8%	-14%
c1ccc2c(c1)CCNC2c1ccncc1 (configuration not stated)	-13%	0%
CC(C)(C)OC(=O)[C@H](Cc1ccccc1)NC(=O)c1nc[nH]c1C(=O)N1CCN(c2ccccc2)CC1	-15%	-21%
CCOC(=O)N1CCC(c2[nH][nH]c(=O)c2C)CC1	i	-17%
O=S(=O)(c1ccccc1)c1nc(-c2cccs2)oc1SCc1ccccc1F	-6%	-3%
Brc1c(-c2ccc3c(c2)OCO3)nc2ncccn12	i	-4%
CCc1ccc(C(=O)c2cn(CC(=O)Nc3ccc4c(c3)OCCO4)c3ccc(F)cc3c2=O)cc1	-7%	-13%
COC(=O)c1cc(=O)nc(NNC(C)=O)s1	i	-6%
COc1ccc(C(=O)N2CCNC(=O)C2CC(=O)Nc2ccc(C)c(C)c2)cc1 (configuration not stated)	-18%	-13%
Cc1ccc(S(=O)(=O)N2CCN(Cc3nc4ccc(C)cc4o3)CC2)c(C)c1	-16%	-4%
O=C(Cn1c2c(c(-c3ccccc3Cl)cc1=O)CCC2)N1CCC2(CC1)OCCO2	nt	-3%
Cc1ccc(NC(=O)Cc2ccc(Cl)c(Cl)c2)cc1S(=O)(=O)N(C)C	-20%	-25%
CCCOc1cccc(C2C(C(=O)c3cccs3)=C(O)C(=O)N2Cc2cccnc2)c1 (configuration not stated)	5%	156%[activator]
COCCNC(=O)c1cc(-c2cccc(Cl)c2)on1	-19%	-14%
COc1cccc(C2C(C(N)=O)=C(C)Nc3ncnn32)c1 (configuration not stated)	-9%	2%

(list continues)
compound	Vaccinia mCherry	Vaccinia Venus
O=C1[C@@H]2C(c3ccc(F)cc3)=NO[C@@H]2C(=O)N1Cc1ccccc1	i	-4%
Cc1c(C(=O)N2CCCCC2)oc2ccc(S(=O)(=O)N3CC(C)CC(C)C3)cc12 (configuration not stated)	nt	?
Cc1ccccc1NC(=O)C12CC3CCC1(C)C3(C)CO2 (configuration not stated)	-8%	15%
O=C(c1ccc2c(c1)N(Cc1ccccc1F)C(=O)c1ccccc1S2=O)N1CCN(c2ccccc2)CC1 (configuration not stated)	-25%	-16%
CCOc1ccc(/C(O)=C2/C(=O)C(=O)N(c3ccccn3)C2c2ccc(Cl)cc2)c(C)c1 (configuration not stated)	i	-19%
OC(c1cccc(Cl)c1)c1nc(-c2ccc(F)c(Cl)c2)cs1 (configuration not stated)	i	-12%
CCn1cc(C(=O)OCC(=O)Nc2cc(S(=O)(=O)N(C)C)ccc2C)c(=O)c2ccc(C)nc21	?	?
O=C(CCNS(=O)(=O)c1ccc2c(c1)CCN2C(=O)C1CC1)Nc1ccc(Cl)cc1	32%[activator]	-13%
CCOc1c(CNCCNC(=O)c2nonc2N)cccc1OC	-5%	3%
CCOc1ccc2nc(SCC(=O)NCC3CCCO3)sc2c1 (configuration not stated)	-16%	8%
CC(C)(C)N(Cc1ccccc1)C(=O)COC(=O)C1CCCCC1	-3%	12%
CCOc1ccc(-c2cn3c(n2)sc2cc(C(=O)NCCC4=CCCCC4)ccc23)cc1	-13%	-22%
CCCCNC(=O)C(NC(=O)c1ccc(C(F)(F)F)cc1)C(=O)c1ccccc1 (configuration not stated)	-9%	-3%
COC(=O)c1cc(OC)c(OC)cc1NC(=O)c1ccco1	nt	-18%
COc1ccc(S(=O)(=O)Cc2ccc(C(=O)N3CCC(C(N)=O)CC3)o2)cc1	i	2%
COc1ccc(Br)cc1CN(C)C(=O)C1=CC=CN2CCS(=O)(=O)N=C12	-4%	-20%
CCc1ccc(CN(C(=O)c2nc(SC)ncc2Cl)C2CCS(=O)(=O)C2)cc1 (configuration not stated)	-12%	-3%
Cc1ccc2nc(-c3ccccc3)cc(C(=O)NCC3CCCO3)c2c1 (configuration not stated)	5%	2%
O=C(CSc1ncnc2ccccc12)Nc1cc(S(=O)(=O)N2CCCCC2)ccc1Cl	?	?
C=C(C(=O)c1ccccc1)C(C)C(=C)C(=O)c1ccccc1	?	?
O=C(NCc1cccc(Br)c1)c1ccc(-n2cnc3cccnc32)cc1	-15%	-10%
COc1ccccc1NC(=O)CCNS(=O)(=O)c1ccc2c(c1)CCCC(=O)N2	-2%	8%
Nn1c(SCC(=O)Nc2nccs2)nncc1=O	i	-7%
Cc1cc(C)n(-c2cc(-c3ccccc3)nc(C)n2)n1	-12%	-2%
COc1ccc(C#Cc2cnc(Cl)c3cncnc23)cc1OC	-5%	-15%
COc1ccc(-c2noc(CSc3nnc(-c4ccncc4)n3-c3ccc(F)cc3)n2)cc1OC	-3%	5%

Record cards, as listed above:
Cc1ccc2nc(-c3ccccc3)cc(C(=O)NCC3CCCO3)c2c1 (configuration not stated) is listed with Vaccinia mCherry: 5%; Vaccinia Venus: 2%
Cc1cc(C)n(-c2cc(-c3ccccc3)nc(C)n2)n1 is listed with Vaccinia mCherry: -12%; Vaccinia Venus: -2%

Assay outcomes from PubChem BioAssay.
